Marburg entry inh: inhibitors of Marburg virus binding or cell entry; hit rate 1.8% among 300,000; Potency, µM (top dose mostly 37.8 µM), without a hit: at the highest dose activity change, negative = inhibition, usual class: inhibitors; Marburg virus pseudotyped entry inhibition, cell reporter; control for the full effect not named in the record; about a third of the inactives were read at about 46 µM; active = well fitted inhibition curve with a large enough effect; inconclusive = small, poorly fitted or top-dose-only effect, or effect the other way; inactive = flat fitted curve, though single readings scatter; tested in HEK293 cells; about a fifth of its hits are not listed in these tables; further: on the % scale 0 is the no-effect control and ±100 the full control effect; luciferase read-out
Cruzain inh noDet: cruzain (T. cruzi) inhibition without detergent; P25779; Potency, µM, without a hit: max response, negative = inhibition, most hits filed as inhibitors; purified cruzain, Z-FR-AMC fluorescence, no detergent; hit rate 2.3% among 200,000; AID 1476; active means well fitted curve in the direction sought with a large enough effect; inconclusive means small, poorly fitted or top-dose-only effect, or another doubt; inactive means no such curve, though single readings can be large; an effect the other way counts as inactive or inconclusive;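 further: plate controls were enzyme without inhibitor for no effect and buffer without enzyme for full effect; nearly all actives have a fitted effect of over 40% in size; top concentration of the series not given in the record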
Target sequence (P25779 123-467 limits assumed): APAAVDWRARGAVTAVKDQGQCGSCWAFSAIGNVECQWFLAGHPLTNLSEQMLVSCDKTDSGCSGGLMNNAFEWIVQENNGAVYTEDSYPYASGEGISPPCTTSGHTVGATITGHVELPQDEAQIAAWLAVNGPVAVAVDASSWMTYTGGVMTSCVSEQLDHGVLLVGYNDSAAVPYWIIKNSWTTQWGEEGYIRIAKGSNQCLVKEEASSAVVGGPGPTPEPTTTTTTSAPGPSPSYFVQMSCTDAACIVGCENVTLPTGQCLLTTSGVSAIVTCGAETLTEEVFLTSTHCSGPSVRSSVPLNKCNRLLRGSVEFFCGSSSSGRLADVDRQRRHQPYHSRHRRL
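Detergent-free condition (0.00005% Triton X-100) in acetate buffer pH 5.5 with DTT. 1.5 nM enzyme and compound were pre-mixed 15 min, then 2 uM Z-FR-AMC substrate added; reaction progress from fluorescence change between first and third reads (60 s).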
RE007 growth inh: less growth of the S. pombe RE007 Vpr strain | S. pombe RE007 Vpr strain, BacTiter-Glo ATP luminescence, 24 h; control for the full effect not named in the record | Potency, µM (titrated, usually from 92.2 µM), without a hit: at the highest dose activity change, negative = less growth | hit rate 0.21% among 360,000; active = well fitted falling curve with a large enough effect; inconclusive = small, poorly fitted or top-dose-only effect; inactive = no such curve, though single readings can be large or run the other way;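 further: on the % scale 0 is the no-effect control and ±100 the full control effect; nearly all actives have a fitted effect of over 50% in size; the assay follows cell death caused by Vpr and the record does not say whether a fall means rescue or toxicity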
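Fission yeast RE007 carrying one integrated HIV-1 vpr copy, seeded at OD 0.01 in PMG+AL medium with 23 nL pinned compound. Grown 24 h at 30 degrees; viability read by BacTiter-Glo luminescence after 5 min.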
StopGo reporter: lowers the luciferase signal of an FMDV 2A StopGo reporter; Potency, µM (top dose mostly 57.9 µM), without a hit: at the highest dose signal change, negative = less light; human cells with a luciferase reporter of 2A StopGo recoding; control for the full effect not named in the record; hit rate 1.2% among 410,000; AID 1159524; active = well fitted falling curve with a large enough effect; inconclusive = small, poorly fitted or top-dose-only effect; inactive = no such curve, though single readings can be large or run the other way; tested in HEK293T cells; further: on the % scale 0 is the no-effect control and ±100 the full control effect; nearly all actives have a fitted effect of over 45% in size; luciferase light after 4 h
SARS PLP yeast: blocks SARS-CoV papain-like protease in a yeast assay; S. cerevisiae expressing SARS-CoV PLpro, growth rescue; control for the full effect not named in the record; Potency, µM (doses to about 32.9 µM), for inactives: top-dose activity, positive = growth rescue; hit rate 0.19% among 330,000; AID 485353; further: 0% is about no effect; nearly all actives have a fitted effect of over 55% in size; growth read by luminescence after 48 h
Cruzain inh Det: blocks cruzain activity in presence of Triton detergent; P25779; purified cruzain, Z-FR-AMC fluorescence, 0.01% Triton; Potency, µM, without a hit: max response, negative = inhibition, most hits filed as inhibitors; hit rate 0.43% among 200,000; AID 1478; active means well fitted curve in the direction sought with a large enough effect; inconclusive means small, poorly fitted or top-dose-only effect, or another doubt; inactive means no such curve, though single readings can be large; an effect the other way counts as inactive or inconclusive;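 further: plate controls were neutral wells for no effect and buffer without enzyme for full effect; nearly all actives have a fitted effect of over 40% in size; top concentration of the series not given in the record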
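Detergent-containing run (0.01% Triton X-100) in acetate buffer pH 5.5 with 5 mM DTT: enzyme at 1.5 nM final, 15 min compound preincubation at room temperature, then 2 uM Z-FR-AMC substrate. Activity taken as 60 s fluorescence increase at 360/450 nm.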
Lassa entry inh: Lassa virus entry inhibition; Lassa virus pseudotype entry inhibition, cell reporter; control for the full effect not named in the record; Potency, µM (titrated, usually from 37.9 µM), without a hit: at the highest dose activity change, negative = inhibition, usual class: inhibitors; hit rate 1.2% among 300,000; active means well fitted inhibition curve with a large enough effect; inconclusive means small, poorly fitted or top-dose-only effect, or effect the other way; inactive means flat fitted curve, though single readings scatter; tested in HEK293 cells; further: on the % scale 0 is the no-effect control and ±100 the full control effect; nearly all actives have a fitted effect of over 50% in size; luciferase read-out
NS1 function inh: blocks influenza NS1 protein function; S. cerevisiae slowed by influenza A NS1, growth recovery by OD600; Potency, µM (doses to about 46.1 µM), for the others: top-dose activity, positive = more growth; AID 2326; hit rate 0.4% among 270,000; further: actives are rising curves; nearly all actives have a fitted effect of over 50% in size
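In this qHTS, NS1 from influenza A is expressed in budding yeast, where it slows growth. Cells are switched from glucose to 2% galactose medium (pH 6.0, -URA), treated with compound, and growth recovery is read at OD600.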
Starred values were filed as active, the others as inactive; [ ] = another dose, or the depositor's remark. Unless noted, the call rests on the fitted dose curve; in most records, active means well fitted rising curve with a large enough effect; inconclusive means small, poorly fitted or top-dose-only effect; inactive means no such curve, though single readings can be large or run the other way. Potency means the concentration at half of the fitted maximal effect. This is a random part of the collection. Share with any hit: about 4.8%.

For CCCOc1cccc(C2C(C(=O)c3ccc(C)o3)=C(O)C(=O)N2c2nc(C)c(C(C)=O)s2)c1 (stereo not given) the results were Marburg entry inh 24%[46.1 µM], RE007 growth inh 9%, StopGo reporter 5%, SARS PLP yeast 6%, Lassa entry inh -2%[46.1 µM] and NS1 function inh inconclusive.
For CCCC(CCC(=O)Nc1ccc(C(=O)OCC)cc1)C(=O)O (stereo not given) the results were Marburg entry inh -6%, Cruzain inh noDet 4%, RE007 growth inh -2%, StopGo reporter -6%, SARS PLP yeast -1%, Cruzain inh Det 0.7%, Lassa entry inh 16% and NS1 function inh -2%.
Screening CCCCOC(=O)c1ccc(Nc2nc3ccc(C)cc3n3cnnc23)cc1 returned Marburg entry inh inconclusive, Cruzain inh noDet -5%, StopGo reporter -18% and Cruzain inh Det 0.5%.
`COC(=O)[C@H]1C[C@@H]1[C@H](NC(=O)[C@H]1C[C@@H]1[C@H](NC(=O)OCc1ccccc1)c1ccccc1)c1ccccc1` gave Marburg entry inh 4%, Cruzain inh noDet 0%, RE007 growth inh -9%, StopGo reporter inconclusive, SARS PLP yeast 1%, Cruzain inh Det -2.9%, Lassa entry inh -22% and NS1 function inh 10µM*.
Screening Cc1ccc2oc(=O)c3cnn(CC(=O)Nc4ccc(Br)cc4C)c3c2c1 returned Marburg entry inh 1%[46.1 µM], Cruzain inh noDet -12%, StopGo reporter -7%, Cruzain inh Det -0.3% and Lassa entry inh 4%[46.1 µM].
Screening CC(=O)c1ccc(S(=O)(=O)Nc2cccc(-c3ccc(N4CCCCCC4)nn3)c2)cc1 returned Cruzain inh noDet -11%, StopGo reporter 42%[activator], Cruzain inh Det -4.3% and Lassa entry inh 11%[46.1 µM].
For CCn1c(CNC(=O)c2cccnc2)cc2ccccc21 the results were RE007 growth inh 5%, StopGo reporter -7%, SARS PLP yeast -2% and NS1 function inh inconclusive.
Cc1cc(C(F)F)n2nc(C(=O)Nc3ccc(S(=O)(=O)NC45CC6CC(CC(C6)C4)C5)cc3)nc2n1 was read as Marburg entry inh -33%, Cruzain inh noDet 28%, RE007 growth inh -11%, StopGo reporter 25%, SARS PLP yeast -5%, Cruzain inh Det -6.1%, Lassa entry inh -21% and NS1 function inh 8%.
Screening CCN(CC)C(=O)CSc1nc(OC)cc(=O)[nH]1 returned Marburg entry inh inconclusive, Cruzain inh noDet 5%, RE007 growth inh -1%, StopGo reporter -15%, SARS PLP yeast 1%, Cruzain inh Det -4.2%, Lassa entry inh 1% and NS1 function inh 8%.
For C=COc1ccc(N2C(=O)c3ccccc3OC2C)cc1 (stereo not given) the results were Marburg entry inh inconclusive, RE007 growth inh 6%, StopGo reporter -3%, SARS PLP yeast -2%, Lassa entry inh -29% and NS1 function inh -24%.
`CC(OC(=O)c1ccc(Cl)nc1)C(=O)N1CCc2ccccc21` (stereo not given) gave Marburg entry inh -1%[46.1 µM], RE007 growth inh -1%, StopGo reporter -24%, SARS PLP yeast 1% and Lassa entry inh 0%.
For Nc1cc(C(=O)OCC(=O)N2CCCC2)ccc1Cl the results were Marburg entry inh 1%, Cruzain inh noDet -3%, RE007 growth inh 2%, StopGo reporter 37%[activator], SARS PLP yeast 0%, Cruzain inh Det 6.6%, Lassa entry inh 3% and NS1 function inh inconclusive.
Screening COc1ccccc1CCNC(=O)C(=O)Nc1cc2c3c(c1)C(C)C(=O)N3CCC2 (stereo not given) returned Marburg entry inh inconclusive, RE007 growth inh 10%, StopGo reporter -30%, SARS PLP yeast -1% and Lassa entry inh -14%.
O=C(Cn1c(O)c(/C=C2\C=Nc3ccc(Br)cc32)sc1=O)N1CCCC1 was read as Marburg entry inh inconclusive, Cruzain inh noDet inconclusive, RE007 growth inh 20%, StopGo reporter -24%, SARS PLP yeast 13%, Cruzain inh Det -0.2%, Lassa entry inh inconclusive and NS1 function inh inconclusive.
Screening O=C(CCCOc1ccc(Cl)cc1Cl)NCc1ccccn1 returned Marburg entry inh inconclusive, RE007 growth inh -4%, StopGo reporter -3%, SARS PLP yeast 0%, Lassa entry inh -1%[46.1 µM] and NS1 function inh -13%.
`CCn1c(SCC(=O)N=Nc2c(O)[nH]c3ccccc23)nnc1-c1ccc(C(C)(C)C)cc1` gave Marburg entry inh -2%, Cruzain inh noDet 0%, SARS PLP yeast -14%, Cruzain inh Det 1.9%, Lassa entry inh 10% and NS1 function inh -3%.
Screening CCC(C)(C)n1nnnc1C(c1cc2cccc(C)c2[nH]c1=O)N1CCCC1 (stereo not given) returned Marburg entry inh -6%, Cruzain inh noDet -6%, RE007 growth inh -6%, StopGo reporter 19%, SARS PLP yeast -1%, Cruzain inh Det -1.0%, Lassa entry inh 3% and NS1 function inh -14%.
`O=c1cc(CSc2nc3ccccc3[nH]2)c2ccccc2[nH]1` gave Marburg entry inh 10%, Cruzain inh noDet -4%, RE007 growth inh 2%, StopGo reporter 21%, SARS PLP yeast 15%, Cruzain inh Det -4.9%, Lassa entry inh inconclusive and NS1 function inh -5%.
Screening CCCCCSc1nc2c(c(=O)[nH]c(=O)n2C)n1CCc1ccccc1 returned Cruzain inh noDet inconclusive, RE007 growth inh 6%, StopGo reporter -28%, SARS PLP yeast 3%, Cruzain inh Det -2.4% and NS1 function inh inconclusive.
`COc1ccc(C(=O)NC(C)c2cnn(-c3ccccn3)c2C)o1` (stereo not given) gave Marburg entry inh inconclusive, RE007 growth inh -3%, StopGo reporter 12%, SARS PLP yeast 0%, Lassa entry inh -4% and NS1 function inh 24%.
For COC1CCN(Cc2c(C(=O)N3C[C@@H](C)O[C@@H](C)C3)nc3ccc(Cl)cn23)CC1 the results were Marburg entry inh 5%[46.1 µM], RE007 growth inh 14%, StopGo reporter -11%, SARS PLP yeast -2%, Lassa entry inh 5%[46.1 µM] and NS1 function inh -17%.
COC(=O)COc1nc(C)c2c(c1C#N)CC(C)(C)OC2 was read as Marburg entry inh -24%, Cruzain inh noDet -1%, RE007 growth inh 23%, StopGo reporter -26%, SARS PLP yeast 3%, Cruzain inh Det 2.0%, Lassa entry inh -4% and NS1 function inh -8%.
Screening COc1ccc(S(=O)(=O)Oc2ccc3ccccc3c2)cc1 returned Marburg entry inh -2%, Cruzain inh noDet 3%, RE007 growth inh -11%, StopGo reporter -6%, SARS PLP yeast -16%, Cruzain inh Det -6.5%, Lassa entry inh inconclusive and NS1 function inh -21%.
CC(=O)Nc1cc(-c2ccccc2)nn1Cc1cccc(Cl)c1 was read as Marburg entry inh -23%[46.1 µM], Cruzain inh noDet 3%, StopGo reporter 0%, Cruzain inh Det -5.2% and Lassa entry inh -8%[46.1 µM].
Cc1occc1-c1nnc(SCC(=O)NC2(C#N)CCCC2)n1C was read as Marburg entry inh -6%[46.1 µM], RE007 growth inh -9%, StopGo reporter -13%, SARS PLP yeast -8% and Lassa entry inh 17%.
For CC(C)NC(=O)CCCn1cc([N+](=O)[O-])cn1 the results were Marburg entry inh -4%[46.1 µM], RE007 growth inh 22%, StopGo reporter -9%, SARS PLP yeast 0% and Lassa entry inh 0%.
For COc1ccc(S(=O)(=O)N2CCN(Cc3cccc(F)c3)CC2)cc1 the results were Marburg entry inh inconclusive, RE007 growth inh -6%, StopGo reporter -24% and Lassa entry inh inconclusive.
Screening CCN(Cc1ccccc1)C(=O)c1ccc(N(C)S(=O)(=O)c2ccc(C)cc2)cc1 returned Marburg entry inh inconclusive, RE007 growth inh 5%, StopGo reporter -7%, SARS PLP yeast -1% and Lassa entry inh inconclusive.
`COc1ccc(S(=O)(=O)NCCc2c[nH]c3ccc(Cl)cc23)cc1` gave Marburg entry inh -4%, RE007 growth inh 5%, StopGo reporter 54%[activator], SARS PLP yeast -4%, Lassa entry inh -25% and NS1 function inh 0%.
Screening CC(=O)N1CCN(CC(=O)Nc2cccc(S(=O)(=O)N3CCCCC3)c2)CC1 returned Marburg entry inh -6%[46.1 µM], RE007 growth inh -3%, StopGo reporter -9%, SARS PLP yeast -1% and Lassa entry inh -9%[46.1 µM].
For COc1ccc(NC(=O)CSc2nncs2)cc1S(N)(=O)=O the results were RE007 growth inh 2%, StopGo reporter 30%, SARS PLP yeast 0% and NS1 function inh 0%.
`O=C(CCc1ccccc1)NNC(=O)Nc1ccc(F)c(Cl)c1` gave Marburg entry inh -19%, RE007 growth inh -9%, StopGo reporter 7%, SARS PLP yeast -4%, Lassa entry inh 2% and NS1 function inh 5%.
`O=C(O)CCN1C(=O)C2CCCCC2C1=O` (stereo not given) gave Marburg entry inh -1%, Cruzain inh noDet -7%, RE007 growth inh 4%, StopGo reporter -16%, SARS PLP yeast 1%, Cruzain inh Det 0.8%, Lassa entry inh 0% and NS1 function inh 4%.
For CCc1nc2sc3c(O)cc(=O)[nH]c3c2cc1C the results were Marburg entry inh 3%[46.1 µM], RE007 growth inh -3%, StopGo reporter -1%, SARS PLP yeast 4% and Lassa entry inh 0%[46.1 µM].
Screening O=C(COc1ccccc1)N1CCN(S(=O)(=O)c2ccc(Br)cc2)CC1 returned RE007 growth inh 3%, StopGo reporter -20%, SARS PLP yeast -2% and NS1 function inh -4%.
Screening CCc1c(C)nc2ncnn2c1N1CCC(C(=O)N2CCN(c3ccccc3)CC2)CC1 returned Marburg entry inh -2%, Cruzain inh noDet 17%, SARS PLP yeast 1%, Cruzain inh Det 4.3% and NS1 function inh -2%.
COc1cccc(-c2nn(Cc3ccccc3)cc2CO)c1 was read as Marburg entry inh 16%[46.1 µM], RE007 growth inh 18%, StopGo reporter 41%[activator], SARS PLP yeast 9%, Lassa entry inh 22% and NS1 function inh -1%.
CCOc1ccc(S(=O)(=O)NC2CC2)cc1C(N)=O was read as Marburg entry inh 8%[46.1 µM], RE007 growth inh 16%, StopGo reporter -2%, SARS PLP yeast -1%, Lassa entry inh 10% and NS1 function inh 8%.
COc1ccc(-c2[nH]c(-c3ccc(C)cc3)nc2SCC(=O)NCC2CCCO2)cc1 (stereo not given) was read as Marburg entry inh 3%[46.1 µM], Cruzain inh noDet 4%, StopGo reporter 6%, Cruzain inh Det -5.2% and Lassa entry inh -11%[46.1 µM].
Screening COc1cc(C2CC(=O)c3c(O)cc(O)cc3O2)ccc1O (stereo not given) returned RE007 growth inh -3%, StopGo reporter -17%, SARS PLP yeast -2% and NS1 function inh 6%.

High-throughput results: PubChem BioAssay, National Center for Advancing Translational Sciences (NCATS)
